Hsc70 ATP site – small molecules displacing fluorescent ligand from Hsc70 – biochemical, fluorescence polarization, primary screen (AID 568); Hsc70 fluorescence polarization, probe displacement; higher % means a stronger effect; strong numbers were not always called active; displacement, % at 20 µM; hits with a dose series show IC50 in µM; 83,000 tested, under 10 active;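 active means displacement above 50% without optical interference and an IC50 on retest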;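 further: ATPase domain with a fluorescein-tagged ATP probe; 0% = vehicle and 100% = excess ADP; read after one hour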
MT1-MMP promoter – inhibitors of MT1-MMP promoter transcription, cell-based, luciferase reporter, luminescence (AID 618). MT1-MMP promoter luciferase reporter cells, luminescence. calls from a first round at 10 µM; hits with a dose series show EC50 in µM. 0.62% of 87,000 active;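 active means over half of the reporter light lost at 10 µM or EC50 under 50 µM; inactive means the rest and hits that failed the dose series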;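 further: actives suppress MT1-MMP promoter-driven transcription so potencies describe inhibitors; HT1080 fibrosarcoma cells; overnight exposure; toxic or luciferase-blocking compounds were not removed from the actives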
WNV protease inh – blocks West Nile virus NS2B-NS3 protease activity. P06935. 0.18% of 65,000 active. AID 577. z-score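 (tested at a level between 10 and 100 µM)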. WNV NS2B-NS3 protease, fluorogenic substrate Ex360/Em465; stronger effect = lower value;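 active means z-score at -3 or under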;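 further: score is relative to mean and spread of the compound wells of a plate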
Target sequence (P06935 1371-1501 limits assumed): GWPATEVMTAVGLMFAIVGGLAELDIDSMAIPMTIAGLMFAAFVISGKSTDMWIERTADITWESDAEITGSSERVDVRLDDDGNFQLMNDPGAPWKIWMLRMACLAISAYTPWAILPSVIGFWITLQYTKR
Target sequence (P06935 1502-1679 limits assumed): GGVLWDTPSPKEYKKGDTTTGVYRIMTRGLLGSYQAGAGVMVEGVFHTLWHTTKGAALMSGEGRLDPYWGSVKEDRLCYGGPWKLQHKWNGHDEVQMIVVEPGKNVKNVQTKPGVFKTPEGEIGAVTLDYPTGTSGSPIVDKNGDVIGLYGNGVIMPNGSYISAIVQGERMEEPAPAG
* = called active by the depositor.

What do the screens show for `Cc1cccc(N2CCN(C(=O)c3ccc(CS(=O)(=O)c4ccccc4C)o3)CC2C)c1` (centres undefined)?
Hsc70 ATP site: -2.3%; MT1-MMP promoter: active; WNV protease inh: -0.06

How did O=C(Nc1ccc2c(c1)OCO2)N1CCN(c2ccccc2Cl)CC1 do in these assays?
Hsc70 ATP site: 0.4%; MT1-MMP promoter: inactive

How did Cn1cccc1Cc1nnc(SCC(=O)NC2CCCCC2)n1-c1ccc(F)cc1 do in these assays?
Hsc70 ATP site: 8.8%; MT1-MMP promoter: inactive; WNV protease inh: -0.17

What do the screens show for `CC1CCCN(C(=O)CN2C(=O)c3ccccc3C2=O)C1` (centres undefined)?
Hsc70 ATP site: 0.8%; MT1-MMP promoter: inactive; WNV protease inh: 0.34

Results for O=c1c2ccccc2nc2n1CCCCN2 ?
Hsc70 ATP site: 0.9%; MT1-MMP promoter: inactive; WNV protease inh: -0.85

Results for COCCNC(=O)c1cc2ncc(Br)cn2n1 ?
Hsc70 ATP site: -0.3%; MT1-MMP promoter: inactive

What do the screens show for `CCCOCC1CC2(SC(=Nc3ccc(C)cc3)NC2=O)C(=O)O1` (centres undefined)?
Hsc70 ATP site: 2.3%; MT1-MMP promoter: inactive; WNV protease inh: 0.87

Results for N#CC1=C(SCc2ccccc2)NC(=O)CC1c1ccc(O)cc1 (centres undefined) ?
Hsc70 ATP site: -2.8%; MT1-MMP promoter: inactive; WNV protease inh: -0.09

How did C=CCc1c(C)nc(SC)nc1Nc1ccc(C)cc1 do in these assays?
Hsc70 ATP site: 8.0%; MT1-MMP promoter: inactive

How did CCNC(=O)CSc1nnc(C2CC2)n1-c1ccccc1 do in these assays?
Hsc70 ATP site: -3.2%; MT1-MMP promoter: inactive

Results for COC(=O)c1cc(Br)c(=O)n(-c2ccccn2)c1 ?
Hsc70 ATP site: -3.2%; MT1-MMP promoter: inactive; WNV protease inh: 1.33

What do the screens show for `CCOc1ccccc1C(=O)N(CCC(=O)OC)c1ccccn1`?
Hsc70 ATP site: 0.4%; MT1-MMP promoter: inactive; WNV protease inh: 1.93

What do the screens show for `CC(=O)NCC(=O)NC(Cc1ccccc1)C(N)=O` (centres undefined)?
Hsc70 ATP site: -0.6%; MT1-MMP promoter: inactive

Results for O=S(=O)(c1cccc(S(=O)(=O)N2CCC(n3nnc4ccccc43)CC2)c1)N1CCCCC1 ?
Hsc70 ATP site: -11.8%; MT1-MMP promoter: inactive; WNV protease inh: -1.46

Results for COc1ccccc1C(=O)Nc1ccc2c(c1)nc(CCNC(C)=O)n2C ?
Hsc70 ATP site: 2.0%; MT1-MMP promoter: inactive; WNV protease inh: 2.18

What do the screens show for `CCNS(=O)(=O)c1ccc(NC(=O)c2cccnc2)cc1`?
Hsc70 ATP site: -4.7%; MT1-MMP promoter: inactive; WNV protease inh: -0.97

Results for CCOCC(=O)Nc1cccc(Br)c1 ?
Hsc70 ATP site: 3.9%; MT1-MMP promoter: inactive; WNV protease inh: 0.06

Results for COCCCNC(=O)c1cc(C)nc2ccc(F)cc12 ?
Hsc70 ATP site: -1.9%; MT1-MMP promoter: inactive; WNV protease inh: -0.13

How did CN1C(=O)CC(N2CCN(CCN=CC3=C(O)CC(C)(C)CC3=O)CC2)C1=O (centres undefined) do in these assays?
Hsc70 ATP site: 2.2%; MT1-MMP promoter: inactive; WNV protease inh: 0.21

Results for COC(=O)c1cccc(COC(=O)c2cccnc2SC)c1 ?
Hsc70 ATP site: -2.2%; MT1-MMP promoter: inactive

Results for CC1(C)Cc2c(ccc3ccccc23)C(=O)N1 ?
Hsc70 ATP site: 2.7%; MT1-MMP promoter: inactive

Results for CCOc1ccc(N2CCCCn3c2nc2c3c(=O)[nH]c(=O)n2C)cc1 ?
Hsc70 ATP site: 5.0%; MT1-MMP promoter: inactive; WNV protease inh: -1.33

What do the screens show for `COc1cccc(CNC(=O)Cn2cc3c(n2)CCCC3)c1`?
Hsc70 ATP site: 0.1%; MT1-MMP promoter: inactive; WNV protease inh: -0.07

Results for CCOC(=O)N1CCN(C(=O)CNS(=O)(=O)c2cccs2)CC1 ?
Hsc70 ATP site: 3.8%; MT1-MMP promoter: inactive; WNV protease inh: -0.99

What do the screens show for `CCCn1c(NCc2cccs2)nc2ccccc21`?
Hsc70 ATP site: -5.4%; MT1-MMP promoter: inactive; WNV protease inh: -1.13

Results for O=C(CCN1CCN(c2ccccc2)CC1)Nc1ccc2c(c1)OCO2 ?
Hsc70 ATP site: -3.2%; MT1-MMP promoter: inactive; WNV protease inh: -0.46

Results for Cc1cc(-c2nsc(=O)o2)c(S(C)(=O)=O)s1 ?
Hsc70 ATP site: 6.9%; MT1-MMP promoter: inactive; WNV protease inh: -1.33

Results for CCN(CC)C(=O)c1n[nH]c(=O)c2ccccc12 ?
Hsc70 ATP site: 4.0%; MT1-MMP promoter: inactive; WNV protease inh: -0.22

What do the screens show for `O=C(NC1CC1)c1ccc(CSCc2cccc(F)c2)o1`?
Hsc70 ATP site: 2.9%; MT1-MMP promoter: inactive; WNV protease inh: 0.64

Results for COCCN1CCn2c(nc3cc(NC(=O)c4cccs4)ccc32)C1 ?
Hsc70 ATP site: -1.7%; MT1-MMP promoter: inactive

What do the screens show for `Cc1ccc2c(c1)C1(C(=O)N2C)N2CC3(C)CN1CC(C)(C2)C3=O` (centres undefined)?
Hsc70 ATP site: 0.4%; MT1-MMP promoter: inactive; WNV protease inh: 0.69

Results for C=CCn1c(N)c(C(=O)NCc2ccco2)sc1=S ?
Hsc70 ATP site: -1.8%; MT1-MMP promoter: inactive; WNV protease inh: -1.07

What do the screens show for `COc1ccc(CNCC(O)COCc2cccs2)cc1` (centres undefined)?
Hsc70 ATP site: 8.6%; MT1-MMP promoter: inactive; WNV protease inh: 1.44

What do the screens show for `NC[C@@]12CCCC1C1CCC2C1` (some centres undefined)?
Hsc70 ATP site: -4.3%; MT1-MMP promoter: inactive; WNV protease inh: 0.43

What do the screens show for `CCc1nnc(NC(=O)c2ccc(COc3ccccc3)o2)s1`?
Hsc70 ATP site: -4.1%; MT1-MMP promoter: inactive; WNV protease inh: 1.05

How did COC(=O)c1sccc1NC(=O)c1csc2c1CCCC2 do in these assays?
Hsc70 ATP site: -8.8%; MT1-MMP promoter: inactive; WNV protease inh: 1.1

What do the screens show for `O=C(Nc1ccc(-c2nnc(-c3ccccc3)o2)cc1)c1ccc(Br)o1`?
Hsc70 ATP site: 3.4%; MT1-MMP promoter: inactive; WNV protease inh: -0.09

How did COc1ccc(N(CC(=O)NC(C)(C)C)S(=O)(=O)c2ccccc2)cc1OC do in these assays?
Hsc70 ATP site: 2.8%; MT1-MMP promoter: inactive; WNV protease inh: 0.75

What do the screens show for `O=C(NCC1CCCO1)c1ccc2c(c1)N(Cc1ccccc1)C(=O)CS2=O` (centres undefined)?
Hsc70 ATP site: 1.1%; MT1-MMP promoter: inactive; WNV protease inh: 1.23

What do the screens show for `CC(C)C(=O)c1cc2c(cc1NC(=O)c1cccs1)OCCO2`?
Hsc70 ATP site: 1.6%; MT1-MMP promoter: inactive

For reference, part of the list above.
What do the screens show for `Cc1cccc(N2CCN(C(=O)c3ccc(CS(=O)(=O)c4ccccc4C)o3)CC2C)c1` (centres undefined)?
Hsc70 ATP site: -2.3%; MT1-MMP promoter: active; WNV protease inh: -0.06

How did O=C(Nc1ccc2c(c1)OCO2)N1CCN(c2ccccc2Cl)CC1 do in these assays?
Hsc70 ATP site: 0.4%; MT1-MMP promoter: inactive

How did Cn1cccc1Cc1nnc(SCC(=O)NC2CCCCC2)n1-c1ccc(F)cc1 do in these assays?
Hsc70 ATP site: 8.8%; MT1-MMP promoter: inactive; WNV protease inh: -0.17

What do the screens show for `CC1CCCN(C(=O)CN2C(=O)c3ccccc3C2=O)C1` (centres undefined)?
Hsc70 ATP site: 0.8%; MT1-MMP promoter: inactive; WNV protease inh: 0.34

Results for O=c1c2ccccc2nc2n1CCCCN2 ?
Hsc70 ATP site: 0.9%; MT1-MMP promoter: inactive; WNV protease inh: -0.85

Results for COCCNC(=O)c1cc2ncc(Br)cn2n1 ?
Hsc70 ATP site: -0.3%; MT1-MMP promoter: inactive

What do the screens show for `CCCOCC1CC2(SC(=Nc3ccc(C)cc3)NC2=O)C(=O)O1` (centres undefined)?
Hsc70 ATP site: 2.3%; MT1-MMP promoter: inactive; WNV protease inh: 0.87

Results for N#CC1=C(SCc2ccccc2)NC(=O)CC1c1ccc(O)cc1 (centres undefined) ?
Hsc70 ATP site: -2.8%; MT1-MMP promoter: inactive; WNV protease inh: -0.09

How did C=CCc1c(C)nc(SC)nc1Nc1ccc(C)cc1 do in these assays?
Hsc70 ATP site: 8.0%; MT1-MMP promoter: inactive

How did CCNC(=O)CSc1nnc(C2CC2)n1-c1ccccc1 do in these assays?
Hsc70 ATP site: -3.2%; MT1-MMP promoter: inactive

Further records:
Results for COc1nc(NCC(C)C)nc(Oc2ccc(OCc3ccccc3)nn2)n1 ?
Hsc70 ATP site: 2.0%; MT1-MMP promoter: inactive; WNV protease inh: -0.32

What do the screens show for `CC1=CC(c2ccc(Cl)cc2)n2nc(N3C(=O)CCC3=O)nc2N1` (centres undefined)?
Hsc70 ATP site: 1.7%; MT1-MMP promoter: inactive

What do the screens show for `Cc1cc(C)n(-c2ccc(C(=O)C(C#N)c3nc4ccccc4n3C)cc2)n1` (centres undefined)?
Hsc70 ATP site: 1.5%; MT1-MMP promoter: inactive; WNV protease inh: -0.98

What do the screens show for `COc1ccc(S(=O)(=O)N2CCCC2)c(C)c1C`?
Hsc70 ATP site: -1.2%; MT1-MMP promoter: inactive; WNV protease inh: 0.14

How did O=C(O)CCc1ccc(-c2ccc(Cl)cc2)n1CC(=O)O do in these assays?
Hsc70 ATP site: 5.8%; MT1-MMP promoter: inactive; WNV protease inh: 0.02

Results for COc1cc(C(=O)Nc2ccc3c(c2)OCCO3)ccc1OC(F)F ?
Hsc70 ATP site: -0.7%; MT1-MMP promoter: inactive; WNV protease inh: -0.09

What do the screens show for `COc1ccc(/C(O)=C/c2nc3ccccc3n(-c3ccccc3)c2=O)cc1`?
Hsc70 ATP site: -99.2%; MT1-MMP promoter: inactive

What do the screens show for `C=CCn1c(N)c(C(=O)NCCC2=CCCCC2)sc1=S`?
Hsc70 ATP site: 1.3%; MT1-MMP promoter: inactive; WNV protease inh: -0.15

How did COCCNC(=O)c1cc(-c2cccc(OC)c2)on1 do in these assays?
Hsc70 ATP site: 6.7%; MT1-MMP promoter: inactive; WNV protease inh: -2.29

What do the screens show for `CC(C)CN1C(=O)c2ccc(NC(=O)c3cccs3)cc2C1=O`?
Hsc70 ATP site: -1.6%; MT1-MMP promoter: inactive

What do the screens show for `Cn1cc(C(=O)N2CCN(c3ccccn3)CC2)c(=O)c2cc(S(=O)(=O)N3CCOCC3)ccc21`?
Hsc70 ATP site: 3.0%; MT1-MMP promoter: inactive; WNV protease inh: 1.16

What do the screens show for `CCn1c(SCC(=O)Nc2nccs2)nnc1-c1cc2cccc(OC)c2o1`?
Hsc70 ATP site: 1.6%; MT1-MMP promoter: inactive; WNV protease inh: 0.43

How did CC1=CC(C)(C)N(C(=O)c2ccc(F)cc2)c2cc3c(cc21)OCO3 do in these assays?
Hsc70 ATP site: -2.7%; MT1-MMP promoter: inactive; WNV protease inh: -0.85

How did CN(C(=O)c1cc2n(n1)C(C(F)(F)F)CC(c1ccco1)N2)c1ccccc1 (centres undefined) do in these assays?
Hsc70 ATP site: -3.2%; MT1-MMP promoter: inactive; WNV protease inh: -0.43

Results for CC1(C)CC(=O)C=C(Nc2ccc(F)cc2F)C1 ?
Hsc70 ATP site: -1.4%; MT1-MMP promoter: inactive; WNV protease inh: -0.79

What do the screens show for `COc1ccccc1-n1c(SCC(N)=O)nc2c(c1=O)SCC2`?
Hsc70 ATP site: -0.5%; MT1-MMP promoter: inactive; WNV protease inh: 0.43

How did C=CCn1cnc2c(c1=O)c1nc3ccccc3nc1n2-c1ccc(Cl)cc1 do in these assays?
Hsc70 ATP site: -2.0%; MT1-MMP promoter: inactive; WNV protease inh: 0.14

What do the screens show for `CC(=O)c1ccc(CCCC(=O)O)cc1`?
Hsc70 ATP site: -3.8%; MT1-MMP promoter: inactive; WNV protease inh: -1.17

What do the screens show for `O=C(CN(C(=O)c1ccc2c(c1)OCCO2)c1ccccc1)NCC1CCCO1` (centres undefined)?
Hsc70 ATP site: 1.0%; MT1-MMP promoter: inactive; WNV protease inh: 0.09

Results for CC(=O)c1c(N2CCN(C(=O)C3CCCO3)CC2)nc(=S)n(-c2ccccc2)c1C (centres undefined) ?
Hsc70 ATP site: 1.9%; MT1-MMP promoter: inactive; WNV protease inh: -2.62

How did O=C(CN1CCN(c2ccccn2)CC1)Nc1ccc(OCc2ccccc2)cc1 do in these assays?
Hsc70 ATP site: 4.8%; MT1-MMP promoter: inactive; WNV protease inh: -1.04

What do the screens show for `Cc1nc(CCNC(=O)c2ccccc2)cs1`?
Hsc70 ATP site: -0.1%; MT1-MMP promoter: inactive; WNV protease inh: 0.91

What do the screens show for `COc1ccc(-c2ccnc(SCC(=O)N3CCOCC3)n2)cc1`?
Hsc70 ATP site: -2.0%; MT1-MMP promoter: inactive; WNV protease inh: 0.78

What do the screens show for `COC1Cc2ccccc2N(C(=O)N2CCN(CCO)CC2)c2ccccc21` (centres undefined)?
Hsc70 ATP site: -2.5%; MT1-MMP promoter: inactive; WNV protease inh: 0.66

Screening results from PubChem.
